Assay outcomes (PubChem)
Mtb growth = Mycobacterium tuberculosis H37Rv growth inhibition, putative kinase inhibitor library, confirmatory dose response (AID 2842) | M. tuberculosis H37Rv growth inhibition; higher % means a stronger effect; some inactives read as strong as hits | one-dose inhibition, % at 10 µg/mL; IC90 in µg/mL for titrated hits | hit rate 5.2% among 24,000;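 active means confirmed in a dose series; about a fifth of its hits are not listed in these tables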;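 further: bacteria incubated one week before Alamar blue readout; 0% = bacteria only wells and 100% = bacteria with high antibiotic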
Starred values were filed as active, the others as inactive; & = joins results of further samples. This is a subset; the hit share may differ from the screen's.

For Cc1ccsc1-c1nc(C(N)=O)c2[nH]c(=O)n(-c3ccccc3F)c2n1 the results were Mtb growth 2%.
CS(=O)(=O)c1ccc(-c2nnc(NC(=O)c3ccc([N+](=O)[O-])s3)o2)cc1 was read as Mtb growth 8%.
`O=C(NC1CC(=O)N(c2ccccc2)C1)c1cccc(C(F)(F)F)c1` (stereo not given) gave Mtb growth 16%.
Cc1cc(C)c2sc(N(CCN(C)C)C(=O)c3cc(Cl)sc3Cl)nc2c1 was read as Mtb growth 7%.
Cc1cc2cc(CCNC(=O)C3c4ccccc4Oc4ccccc43)c(=O)[nH]c2cc1C was read as Mtb growth 0%.
`Cc1ccc(Cn2cc(SCC(=O)Nc3nc4ccccc4s3)c3ccccc32)cc1` gave Mtb growth 1%.
`COc1ccc(C(=O)CSc2ccc3nnc(-c4cccnc4)n3n2)cc1` gave Mtb growth -6%.
`O=C(Nc1ccc([N+](=O)[O-])cc1)Nc1nc(-c2ccc(Cl)s2)cs1` gave Mtb growth 17%.
Screening COc1ccc(NC(=O)CSc2ccc3nnc(-c4cccnc4)n3n2)cc1 returned Mtb growth -8%.
O=C(Nc1nnc(-c2cccnc2)o1)c1cc(Cl)ccc1Cl was read as Mtb growth 28µg/mL*.
For Cc1cc(SCc2cccc(C(F)(F)F)c2)nc(=O)[nH]1 the results were Mtb growth 3%.
`Cc1cccc(Cn2c(=O)c3c(nc4n(-c5ccccc5)c(C)cn34)n(C)c2=O)c1` gave Mtb growth -4%.
For COc1ccc(NC(=S)NCCc2cc3c(OC)ccc(OC)c3[nH]c2=O)c(OC)c1 the results were Mtb growth 5%.
For Cc1cc(C)nc(NS(=O)(=O)c2ccc(N=Nc3c(C)[nH][nH]c3=O)cc2)n1 the results were Mtb growth -6%.
Screening C=CCn1c(=NC(=O)CN2C(=O)c3ccccc3C2=O)sc2cc(C(=O)OC)ccc21 returned Mtb growth -13%.
`CCOc1ccc(NC(=O)COc2cccc3c2CCN(Cc2cccnc2)C3=O)cc1` gave Mtb growth 56%.
`CCOC(=O)c1ccc(-n2cc(O)c(C(=O)OC)n2)cc1` gave Mtb growth 67%.
`Cc1ccc(C)c2[nH]c(=O)c(CCNC(=S)Nc3cccc(F)c3)cc12` gave Mtb growth 31%.
For CCCCCn1c(Sc2ccc(C)cc2)nc2c1c(=O)[nH]c(=O)n2C the results were Mtb growth -1%.
Screening Cc1ccccc1OCCn1cnc2ccccc21 returned Mtb growth 69%.
`COc1cccc(N2CC(NC(=O)c3ccccc3Br)CC2=O)c1` (stereo not given) gave Mtb growth 10%.
Cn1cnnc1SCc1cc(=O)c(OCc2cccc([N+](=O)[O-])c2)co1 was read as Mtb growth -8%.
Screening NS(=O)(=O)c1ccc(NC2=C(Cl)C(=O)N(c3ccc(F)cc3)C2=O)cc1 returned Mtb growth -1%.
Screening Cc1cccc(NC(=O)CC(C(=O)O)N2CCN(C)CC2)c1C (stereo not given) returned Mtb growth -1%.
COc1ccc(OC)c(NC(=O)c2oc3ccccc3c2NC(=O)/C=C/c2ccccc2)c1 was read as Mtb growth 2%.
For O=C(NCc1ccccc1)c1c(O)c2ccccc2[nH]c1=O the results were Mtb growth 14%.
Screening COc1ccc(S(=O)(=O)CC(=O)Nc2nnc(-c3ccc4c(c3)OCCO4)o2)cc1 returned Mtb growth 7%.
`CN(c1ccccc1)S(=O)(=O)c1ccc(C(=O)Nc2nc(-c3ccc(I)cc3)cs2)cc1` gave Mtb growth 5%.
For O=C(CSc1nnc2[nH]c(=O)ccn12)Nc1ccc(Cl)c(Cl)c1 the results were Mtb growth 66%.
Cc1cc(OC(=O)C23CC4CC(CC(C4)C2)C3)c([N+](=O)[O-])c(=O)[nH]1 was read as Mtb growth 2%.
COc1ccccc1C(Nc1ccccn1)c1c(C)[nH]c2ccccc12 (stereo not given) was read as Mtb growth 2%.
Screening CC1CCc2sc(NC(=O)c3ccc(Cl)cc3)c(C(N)=O)c2C1 (stereo not given) returned Mtb growth 0%.
`Cc1ccc(Nc2nc(N3CCN(C)CC3)nc3nccnc23)cc1` gave Mtb growth -16%.
CC(=O)N1N=C(c2cccc(O)c2)CC1c1ccccc1 (stereo not given) was read as Mtb growth -5%.
For O=C(COc1ccccc1C1CC(c2ccccc2)=NN1C(=O)c1ccccc1)NCCO (stereo not given) the results were Mtb growth -2%.
For Cc1cccc(/C=N/NC(=O)CCc2n[nH]c(=O)[nH]c2=O)c1 the results were Mtb growth 2%.
`CCCCC(=O)Nc1scc2c(C(=O)OCC)nn(-c3ccc(Cl)cc3)c(=O)c12` gave Mtb growth 13%.
COc1ccc(CCn2c(C)c(C)n3c4c(=O)[nH]c(=O)n(C)c4nc23)cc1OC was read as Mtb growth -8%.
For CC(=O)N1CCc2c(sc(NC(=O)CN3C(=O)c4ccccc4C3=O)c2C(N)=O)C1 the results were Mtb growth 0%.
Screening CCCCc1ccc(NC(=O)CSC2=NS(=O)(=O)c3cc(F)ccc3N2)cc1 returned Mtb growth -10%.
For Cn1c(Cn2c(=O)sc3ccccc32)nnc1SCC(=O)N1CCOCC1 the results were Mtb growth -4%.
For O=C(Nc1nc(-c2ccc(Br)cc2)cs1)c1coc2ccccc2c1=O the results were Mtb growth -8%.
For O=C(Nc1ccc2c(c1)OCCO2)c1oc2ccccc2c1NC(=O)C1c2ccccc2Oc2ccccc21 the results were Mtb growth 6%.
For CC(=O)c1ccc2[nH]c(C)c(CN3CCc4ccccc4C3)c(=O)c2c1 the results were Mtb growth -6%.
`Nc1nc(SCC(=O)Nc2ccc(F)cc2F)[nH]c(=O)c1NC(=O)c1ccc(Cl)cc1` gave Mtb growth -13%.
`CCC(=O)Nc1sc2c(c1-c1nc3ccccc3s1)CCN(C(C)=O)C2` gave Mtb growth -7%.
Screening CCc1ccc(C(=O)c2cn(Cc3ccc(C)cc3)c3cc4c(cc3c2=O)OCCO4)cc1 returned Mtb growth 77%.
`CC1CC(C)CN(S(=O)(=O)c2ccc(C(=O)Nc3nc4c(cc5c6c(cccc64)CC5)s3)cc2)C1` (stereo not given) gave Mtb growth -8%.
For Cc1cc(C)c(NC(=O)CSc2nc3c(c(=O)n2Cc2ccccc2)SC(C)C3)c(C)c1 (stereo not given) the results were Mtb growth 79%.
`Brc1ccc2nc(Nc3nc4ccccc4[nH]3)nc(-c3ccccc3)c2c1` gave Mtb growth 15%.
Screening COc1ccc(C(=O)c2sc3nc(-c4ccc(C)cc4)cc(C(F)(F)F)c3c2N)cc1Br returned Mtb growth 0%.
`Oc1c(C(c2cccs2)N2CCC(Cc3ccccc3)CC2)sc2ncnn12` (stereo not given) gave Mtb growth 7%.
Screening Cc1ccc(N2CC(NC(=O)NCc3cccs3)CC2=O)cc1C (stereo not given) returned Mtb growth 6%.
CCOc1ccccc1C(=O)Nc1nnc(-c2ccccc2)s1 was read as Mtb growth 7%.
O=C(Nc1nnc(-c2ccc3c(c2)CCCC3)o1)c1cccc(N2C(=O)CCC2=O)c1 was read as Mtb growth -2%.
For CCOc1ccc(NC(=O)c2ccc(Cl)s2)c([N+](=O)[O-])c1 the results were Mtb growth 58%.
Screening CC(=O)Nc1ccc(NS(=O)(=O)c2c[nH]c(=O)[nH]c2=O)cc1 returned Mtb growth 1%.
`CC(C)CCSc1nc2c(c(=O)[nH]1)C(c1cccnc1)C1=C(CCCC1=O)N2` (stereo not given) gave Mtb growth 3%.
CCOc1ccc(C(c2sc3nc(C)nn3c2O)N2CCCC2)cc1OC (stereo not given) was read as Mtb growth 2%.
Cc1ccc(Cn2nnc(C(=O)NCc3ccc(F)cc3)c2N)cc1 was read as Mtb growth 3%.
Screening CCCCn1c(SCc2ccccc2Cl)nc2c1c(=O)[nH]c(=O)n2C returned Mtb growth 56%.
`COc1ccc(-n2c(SCC(=O)O)nc3c([nH]c4ccccc43)c2=O)cc1OC` gave Mtb growth -8%.
Screening O=S(=O)(Nc1cccc(-c2ccc3nncn3n2)c1)c1cccc(C(F)(F)F)c1 returned Mtb growth 13%.
`O=C(Nc1c(C(=O)Nc2ccc3c(c2)OCCO3)oc2ccccc12)c1ccc2ccccc2c1` gave Mtb growth 11%.
Screening CCc1ccc(S(=O)(=O)c2cn(Cc3cccc(C)c3)c3ccc(OC)cc3c2=O)cc1 returned Mtb growth 53%.
`Nc1c(C(=O)NCc2ccccc2)sc2nc3c(cc12)C(=O)CCC3` gave Mtb growth -6%.
Screening Nc1nc(SCc2ccc([N+](=O)[O-])cc2)[nH]c(=O)c1NC(=O)c1ccc(Cl)cc1 returned Mtb growth -6%.
Screening O=C(Cc1n[nH]c(=O)[nH]c1=O)N/N=C/C1CC=CCC1 (stereo not given) returned Mtb growth -4%.
`O=C(Nc1cccc2c1C(=O)c1ccccc1C2=O)c1ccc([N+](=O)[O-])cc1` gave Mtb growth 11%.
Screening NC(=O)c1nc(-c2cccs2)nc2c1[nH]c(=O)n2-c1ccccc1F returned Mtb growth -7%.
CC1=C(C(=O)Nc2ccc(C)c(Cl)c2)C(c2ccc(C)cc2)NC(=O)N1 (stereo not given) was read as Mtb growth 65%.
COc1cccc(N2CC(NC(=O)c3cccc([N+](=O)[O-])c3C)CC2=O)c1 (stereo not given) was read as Mtb growth 8%.
For O=C(CN1C(=O)/C(=C/c2ccco2)SC1=S)Nc1cccc(C(=O)O)c1 the results were Mtb growth -20%.
Screening COc1cc(OC)cc(C(=O)N2CCN=C2SCc2ccc(Cl)cc2)c1 returned Mtb growth -2%.
`COc1ccc(NC(=O)c2oc(=O)c3ccccc3c2-c2ccccc2)cc1` gave Mtb growth -3%.
O=c1ccc2cc(S(=O)(=O)N3CCN(c4ccccc4)CC3)ccc2o1 was read as Mtb growth 0%.
`Cc1ccc(-n2nnc(-c3nc(-c4ccncc4)no3)c2N)cc1C` gave Mtb growth -7%.
Screening CNC(=S)NCCc1cc2c(OC)ccc(OC)c2[nH]c1=O returned Mtb growth -5%.
For O=C(CSc1nc2[nH]ncc2c(=O)[nH]1)Nc1ccc([N+](=O)[O-])cc1 the results were Mtb growth 43%.
COc1cc(OC)cc(C(=O)N(CCCn2ccnc2)c2nc3cc(C)cc(C)c3s2)c1 was read as Mtb growth 6.6µg/mL*.
For COc1ccc(Cl)cc1N1C(=O)C(Cl)=C(Nc2cc(C)ccc2O)C1=O the results were Mtb growth -2%.
`NC(=O)c1oc2ccccc2c1NC(=O)C1=COCCO1` gave Mtb growth 1%.
For Cc1cc(C)cc(-n2nnc3c(=O)n(CC(=O)NCc4ccco4)cnc32)c1 the results were Mtb growth -6%.
For Cc1c(C(=O)O)sc2nc(SCC(=O)Nc3ccc(S(N)(=O)=O)cc3)[nH]c(=O)c12 the results were Mtb growth -15%.
CCOc1ccc(C(=O)Nc2c(N)nc(SCC(=O)Nc3cccc(F)c3)[nH]c2=O)cc1 was read as Mtb growth -9%.
Cc1ccc(/C=C/C(=O)Nc2ccc(S(N)(=O)=O)cc2)o1 was read as Mtb growth 6%.
CC(C)Oc1ccc(C(=O)Nc2nnc(-c3ccc(Cl)cc3)s2)cc1 was read as Mtb growth -4%.
`CCOC(=O)c1cnc2ccc(C)cc2c1Nc1cccc(O)c1` gave Mtb growth -7%.
Screening COc1cc(/C=C2/SC(N)=NC2=O)ccc1O returned Mtb growth 33%.
For O=C(CSc1nnc2ccc(-c3cccnc3)nn12)NC1CCCCC1 the results were Mtb growth -8%.
`CCCc1cc(=O)[nH]c2nnc(SCC(=O)c3ccc(Cl)cc3)n12` gave Mtb growth -6%.
CCOc1ccc(C(=O)NCCc2cc3ccc(C)c(C)c3[nH]c2=O)cc1 was read as Mtb growth -10%.
`Cc1nnc(N/N=C/c2cccs2)[nH]c1=O` gave Mtb growth -15%&-2%.
CC(=O)N1CCc2c(sc(NC(=O)CCSc3ccc(C)cc3)c2C#N)C1 was read as Mtb growth -9%.
For CCCOc1cccc(C2/C(=C(/O)c3ccc(OC)cc3)C(=O)C(=O)N2CCN(C)C)c1 (stereo not given) the results were Mtb growth -6%.
`Cn1c(NC(=O)c2ccc(N3C(=O)CCC3=O)cc2)cc(=O)n(C)c1=O` gave Mtb growth 2%.
